# Compound activity (PubChem)
# Mtb bLac sens: beta-lactam sensitization of Mtb H37Rv; M. tuberculosis H37Rv growth with meropenem, percent inhibition; hits of this screen are not shown here; inhibition, % at 25 µM; 330,000 tested, 0.27% active;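 active = about 74% or more and at least 40 points above the plate without the antibiotic, then above 30% in a dose series; inconclusive = first-round hits that could not be retested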;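 also: growth measured after seven days incubation then overnight dye step; 0% = bacteria only wells and 100% = bacteria with antibiotic; twin plates without the antibiotic show which effects depend on it; some results filed as inactive read as strong as hits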
# Mtb growth: M. tuberculosis H37Rv growth inhibitors, H37Rv strain (AID 1626); inhibition, % at 10 µM; hits with a dose series show IC50 in µM; M. tuberculosis H37Rv growth inhibition; higher % means a stronger effect; 220,000 tested, 0.95% active;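 active = confirmed in a dose series; inconclusive = inhibition above 80% but not taken into the dose series; inactive = below 80% or under 30% at every dose of the series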;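 also: bacteria incubated seven days before Alamar blue readout; 0% = bacteria only wells and 100% = bacteria with antibiotic wells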
# YopH PTP inh: YopH (Yersinia) phosphatase inhibition | fluorescence Ex485/Em525 | inhibition, %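 (about 10 µM by stock and volumes)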 | 140,000 tested, 0.16% active | AID 898;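 active = inhibition of 50% or more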;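 also: controls were vehicle for no effect and minimum signal wells for full effect; inactives centre near -20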
# RecA intein inh: inhibitors of M. tuberculosis RecA intein splicing | cell-free RecA intein splicing, fluorescence | P9WHJ3 | 290,000 tested, 0.75% active | inhibition, %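 (about 9 µM by stock and volumes)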; in the data active = inhibition above about 30%; inconclusive = no clear call, values can overlap the other calls;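 also: 0% = vehicle wells and 100% = reference inhibitor control wells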
# Target sequence (P9WHJ3 whole entry, looked up): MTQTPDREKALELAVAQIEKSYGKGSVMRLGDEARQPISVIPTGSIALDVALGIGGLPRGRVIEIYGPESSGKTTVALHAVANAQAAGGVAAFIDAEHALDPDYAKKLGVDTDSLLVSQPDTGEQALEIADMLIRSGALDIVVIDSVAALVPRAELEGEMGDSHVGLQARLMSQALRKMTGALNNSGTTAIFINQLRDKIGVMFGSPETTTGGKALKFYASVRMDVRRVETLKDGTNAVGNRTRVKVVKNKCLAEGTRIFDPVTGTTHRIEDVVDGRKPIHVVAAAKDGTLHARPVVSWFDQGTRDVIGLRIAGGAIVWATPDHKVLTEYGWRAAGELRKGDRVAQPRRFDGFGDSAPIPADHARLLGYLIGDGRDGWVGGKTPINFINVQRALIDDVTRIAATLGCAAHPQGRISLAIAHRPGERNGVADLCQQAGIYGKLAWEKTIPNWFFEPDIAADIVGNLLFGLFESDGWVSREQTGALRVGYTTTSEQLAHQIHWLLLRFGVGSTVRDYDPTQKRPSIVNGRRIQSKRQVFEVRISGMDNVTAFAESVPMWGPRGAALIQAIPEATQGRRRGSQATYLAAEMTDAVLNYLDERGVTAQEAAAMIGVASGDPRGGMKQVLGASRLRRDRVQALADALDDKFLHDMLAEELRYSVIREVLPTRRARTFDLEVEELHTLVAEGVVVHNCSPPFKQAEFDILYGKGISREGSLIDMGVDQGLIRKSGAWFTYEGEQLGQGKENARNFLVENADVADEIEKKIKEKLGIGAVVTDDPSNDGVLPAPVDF
# Arbovirus anti: blocks arbovirus infection | arbovirus infection cell-based antiviral screen | AID 1251 | inhibition, % at 10 µM | 200,000 tested, 0.37% active;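 active = inhibition from about 30%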;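 also: bluetongue infection of BSR cells; cell survival read as ATP light after 72 h; 0% = infected wells without compound and 100% = uninfected wells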
# Arbovirus anti repeat: also measured in Arbovirus anti; calls as there; inhibition, %; measured here: 10K subset replicate screen; many hits read low in the repeat;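 first of two repeat runs on a subset; 0% = infected and 100% = uninfected wells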
# Starred values were filed as active, the others as inactive; ? = inconclusive; . = not tested or not shown. Only part of the results is shown. The share of hits here may be higher or lower than overall.
SMILES,Mtb bLac sens,Mtb growth,YopH PTP inh,RecA intein inh,Arbovirus anti,others
COc1ccc(OC)c(-c2cc(C(=O)Nc3c(C)n(C)n(-c4ccccc4)c3=O)no2)c1,.,-1%,-31,3.1,4,
CCC(C(=O)Nc1cc(C)on1)c1ccccc1 (configuration not stated),-4,7%,-24,1.1,0,
COc1ccccc1C(=O)NNC(=O)c1ccc(F)cc1,-7,13%,-13,-1.1,2,
CC1CCN(S(=O)(=O)c2ccccc2[N+](=O)[O-])CC1,1,-1%,-26,-1.4,-3,
CC1=C(/C=C/C(=O)O)C(C)(C)CCC1,5,-3%,-18,0.9,12,
CC1(C)C(=O)OC(c2ccco2)C(C)(C)C1=O (configuration not stated),-2,-9%,-7,2.0,10,
CCOc1ccc(S(=O)(=O)N2CCN(Cc3ccc4c(c3)OCO4)CC2)cc1OCC,-1,.,.,3.8,.,
COc1ccc2cc3cc(C(=O)NCCCN4CCC(C)CC4)oc3nc2c1,-1,.,.,-7.7,.,
O=C(O)/C=C/C(=O)NNC(=O)c1cc(-c2ccccc2)n[nH]1,0,-6%,.,2.0,0,
CCOc1ccc(-n2c(=O)c3sccc3n(CC(=O)NCC3CCCO3)c2=O)cc1 (configuration not stated),2,.,.,1.4,.,
COc1cccc(CN(C)C(=O)C(CCSC)NS(=O)(=O)c2ccc3c(c2)OCCO3)c1OC (configuration not stated),-2,.,.,1.1,.,
CCN(Cc1cc(=O)[nH]c2ccccc12)C(=O)c1ccc(C)cc1,-12,-3%,.,1.7,.,
Cn1c(=O)c2c(ncn2CC(=O)N/N=C/C(Br)=C/c2ccccc2)n(C)c1=O,98,?,-23,0.6,4,
O=C(c1cnc(N2CCN(c3ncccn3)CC2)c2ccccc12)N1CCN(c2ccccn2)CC1,-2,1%,-30,2.9,-8,
c1ccc(C2COC(c3cccs3)=N2)cc1 (configuration not stated),1,5%,-27,0.3,-2,

# A section from further up, for reference:
SMILES,Mtb bLac sens,Mtb growth,YopH PTP inh,RecA intein inh,Arbovirus anti,others
Cn1c(=O)c2c(ncn2CC(=O)N/N=C/C(Br)=C/c2ccccc2)n(C)c1=O,98,?,-23,0.6,4,
O=C(c1cnc(N2CCN(c3ncccn3)CC2)c2ccccc12)N1CCN(c2ccccn2)CC1,-2,1%,-30,2.9,-8,
c1ccc(C2COC(c3cccs3)=N2)cc1 (configuration not stated),1,5%,-27,0.3,-2,

# Further structures.
SMILES,Mtb bLac sens,Mtb growth,YopH PTP inh,RecA intein inh,Arbovirus anti,others
CO/N=C/CC(=O)c1ccc([N+](=O)[O-])c(CS(=O)(=O)c2ccc(Cl)cc2)c1,8,.,.,0.2,.,
CC(C)c1nc2cc(C(=O)NC(C)c3cnn(C)c3)ccc2o1 (configuration not stated),-6,.,.,-0.1,.,
C=CCNc1nnc(Cc2ccc(F)cc2)c(=O)[nH]1,1,.,.,-1.5,.,
COc1ccc(CN2CCC(=O)N(CCO)CC2)cc1OC,-9,.,.,0.6,.,
Cn1c(Cn2c(=O)sc3ccccc32)nnc1SCC(=O)NCc1ccc2c(c1)OCO2,-3,.,-15,-0.4,0,Arbovirus anti repeat=8
CS(=O)(=O)N(Cc1ccc(C(=O)NCCSCc2ccco2)cc1)c1ccccc1,-4,-5%,-27,-3.5,-4,
C=CCNC(=S)/N=c1/ccccn1C,-5,-4%,.,0.3,.,
COc1ccc(OCC(=O)N2c3ccccc3CCc3ccccc32)cc1,-3,14%,-26,7.5,-4,
CN(C)c1ccc(/C=c2\sc3n(c2=O)CCCN=3)cc1,73,11%,-31,-7.5,-24,
Cc1ccc(S(=O)(=O)N(C)C)cc1NC(=S)Nc1ccc2cn[nH]c2c1,-7,?,.,2.5,-1,
O=C(NCc1ccco1)c1ccccc1Nc1ccc(F)cc1,-3,-1%,-24,10,-2,
Cc1ccc(C(=O)O)cc1NC(=S)NC(=O)c1ccc(COc2ccccc2)cc1,56,.,.,12,.,
COc1ccc(CN2CCCCC2C)cc1OC (configuration not stated),5,9%,-10,0.6,5,
CC(C)(C)CC(=O)NC(=S)NCCc1ccccc1,1,-2%,-32,-0.6,-8,
CCOc1ccc(NC(=O)CSc2nnc(CCNC(=O)c3ccc(OC)cc3)n2C)cc1,6,76%,-9,-3.2,-4,
Cc1ccc(N2C(=O)C(CN3CCCCC3)C2c2ccccc2)cc1 (configuration not stated),0,0%,.,4.2,-3,
Cc1c(C=O)c2ccccn2c1C(=O)c1ccncc1,-3,-2%,-7,.,13,
COc1ccc(C(C2C(=O)CC(C)(C)CC2=O)C2C(=O)CC(C)(C)CC2=O)cc1CO,9,.,.,-2.2,.,
COc1ccc(Cl)cc1NC(=S)NCc1ccco1,10,1%,17,-0.3,10,
O=C(N[C@@H](Cc1ccccc1)C(=O)OCC(=O)N1CCOCC1)c1cccs1,-1,0%,.,-1.9,1,
COc1cccc(-n2c(/C=C/c3ccccn3)nc3ccccc3c2=O)c1,2,.,.,-13,.,
Cc1cc(NC(=S)Nc2cccnc2)ccc1Br,90,?,.,-1.5,20,
COc1ccc(OC)c(S(=O)(=O)Nc2ccc3c(c2)n(C)c(=O)n3C)c1,-2,.,.,-7.7,.,
c1ccc(N=Nc2cn[nH]c2-c2ccco2)cc1,.,-1%,.,1.2,-2,
Cc1nc2scc(-c3cccs3)c2c(=O)n1CC(=O)O,1,-7%,-5,2.8,-1,
N#Cc1c(-c2ccccc2)oc(=O)c2ccccc12,2,.,.,-1.3,.,
COc1ccccc1C(=O)N/C(=C/c1ccc2c(c1)OCO2)C(=O)Nc1ccc(C(=O)O)cc1,-5,.,.,2.7,.,
CCOC(=O)C1=C(COC(=O)c2cccc(Br)c2)NC(=O)NC1C (configuration not stated),2,.,.,1.9,.,
CCCc1cc(-c2n[nH]c(C)c2-c2ccc(C(=O)OCC)o2)c(O)cc1O,-4,1%,3,-4.8,-4,
COc1ccc(OC)c(N=Cc2c(O)[nH]c(=O)[nH]c2=O)c1,5,.,.,-3.7,.,
COc1ccc(N2CC(C(=O)Nc3cccc(S(=O)(=O)N4CCCC4)c3)CC2=O)c(OC)c1 (configuration not stated),-7,.,.,1.1,.,
CC(/C=N/NC(=O)c1nnn(-c2nonc2N)c1C)=C\c1ccccc1,0,.,.,-1.0,.,
O=C(c1ccccc1Cl)N1CCN(S(=O)(=O)c2cccs2)CC1,-26,.,.,-1.2,.,
COc1cc(C(=O)Nc2nnc(C(C)(C)C)s2)c([N+](=O)[O-])cc1OC,-3,2%,-16,0.4,2,
Cn1c(=O)c2c(nc(CN3CCN(C(=O)c4ccco4)CC3)n2Cc2cccc(Cl)c2)n(C)c1=O,12,-1%,-56,3.8,-6,
CC(C)(C)NC(=O)CN(Cc1cccs1)C(=O)C1COc2ccccc2O1 (configuration not stated),0,-3%,-22,2.6,2,
CN(C)Cc1c(C#N)c2ccccc2n1C,-1,-5%,-30,-2.0,-6,
C=CCNc1nc(Nc2ccc([N+](=O)[O-])cc2)nc(OC)n1,5,2%,.,-1.2,-9,
O=C(Nc1ccnn1C1CCN(C2CCOCC2)CC1)c1cccc(F)c1,1,.,.,2.6,.,
CS(=O)(=O)N1CCC(C(=O)NCCC2=CCCCC2)CC1,-5,-1%,-7,1.3,17,
Cc1ccc2[nH]c(=O)c(CN(CCN3CCOCC3)C(=O)Nc3ccccc3F)cc2c1,.,3%,-20,-2.6,-1,
Oc1ccc(NC(=S)Nc2ccc(F)cc2)cc1,-5,.,.,-1.7,.,
CN1C(=O)c2cccc3c(Br)ccc(c23)C1=O,95,.,.,2.2,.,
O=C(COc1ccc(Br)cc1Cl)NC1CCN(Cc2ccccc2)CC1,-4,.,.,1.3,.,
O=C(NCc1ccc(F)cc1)c1cc(S(=O)(=O)N2CCOCC2)ccc1F,?,-8%,-21,3.2,6,
Nc1nnc(SCC(=O)NC2CCCCCCC2)s1,-4,.,.,-0.5,.,
COc1ccc(CNC(=O)C(=O)NCC2OCCN2S(=O)(=O)c2ccc(C)cc2)cc1 (configuration not stated),5,.,.,0.3,.,
O=C(Nc1ccc(S(=O)(=O)N2CCCC2)cc1)c1ccc2c(=O)n3c(nc2c1)CCCCC3,3,2%,-23,1.0,-3,
CCOc1cc(CNCc2ccc(C(=O)O)cc2)ccc1OC,-7,21%,.,-0.6,1,
NCCCC[C@H]1CNC(=S)N1CCc1cccc(F)c1,-8,-10%,.,0.0,2,
COc1cc(NC(=O)c2ccc(-c3cccc([N+](=O)[O-])c3)o2)ccc1NC(=O)C(C)C,-7,.,.,-2.5,.,
COC(=O)c1ccccc1Oc1ccc(NC(=O)c2ccco2)cc1,-2,.,.,1.6,.,
CCOc1ccccc1-c1nc(-c2ccc(NC(=O)Cc3ccc(OC)cc3)cc2)no1,5,5%,-51,-0.1,9,
O=C(Nc1cccn2ncnc12)C(Cl)Cl,3,.,-28,-1.5,3,
COCCNC(=O)Nc1ccc(F)cc1,4,6%,.,.,-1,
COc1ccc(Cl)cc1NC(=O)NCc1ccco1,-3,-4%,.,2.0,-5,
O=C(CCN1C(=O)c2ccccc2C1=O)NNC(=O)c1ccc(Cl)cc1Cl,-2,-4%,-4,-2.7,2,
CCCn1c(=O)c2ccccc2n2c(SCC(=O)N3CCc4ccccc4C3)nnc12,-6,1%,-27,3.7,1,
c1ccc(-n2cnnc2SCc2cn3ccsc3n2)cc1,9,-10%,7,-0.2,-2,
Cc1cc(C(=O)N/N=C/c2cn[nH]c2-c2ccccc2)cs1,5,-6%,-2,-3.0,3,

# Ordered by number of heavy atoms (ascending): 4 of the compounds above
SMILES,Mtb bLac sens,Mtb growth,YopH PTP inh,RecA intein inh,Arbovirus anti,others
COCCNC(=O)Nc1ccc(F)cc1,4,6%,.,.,-1,
Nc1nnc(SCC(=O)NC2CCCCCCC2)s1,-4,.,.,-0.5,.,
COC(=O)c1ccccc1Oc1ccc(NC(=O)c2ccco2)cc1,-2,.,.,1.6,.,
COc1ccc(CNC(=O)C(=O)NCC2OCCN2S(=O)(=O)c2ccc(C)cc2)cc1 (configuration not stated),5,.,.,0.3,.,

# (listing goes on)
SMILES,Mtb bLac sens,Mtb growth,YopH PTP inh,RecA intein inh,Arbovirus anti,others
COC(=O)C[C@H]1c2cc(C(F)(F)F)ccc2S(=O)(=O)N1c1ccc(N(C)C)cc1,20,-13%,.,-1.6,.,
CC1=CCC2C(=O)N(c3cccc(C(=O)NC(C)c4ccccc4)c3)C(=O)C2C1 (configuration not stated),6,.,.,-2.6,.,
COc1ccccc1CNC(=O)C/C(C)=N/NC(=O)Cc1ccc(Cl)cc1,1,.,.,0.5,.,
COc1ccc2c(c1)CCCN2C(N)=O,-13,-8%,-11,-0.4,5,
CCOC(=O)C1=C(O)C(=O)N(Cc2cccnc2)C1c1ccc(C)cc1 (configuration not stated),-5,-5%,.,-5.6,16,
COc1ccc(CCC(=O)NC2=NCCS2)cc1OC,-1,-10%,-29,.,8,
Cc1ccc(C)c(N2CC(O)(c3cccs3)[N+]3=C2CCCC3)c1 (configuration not stated),-1,-16%,.,-1.5,-6,
CC(=O)C1=C(C)Nc2ncnn2C1c1ccccc1OCc1ccccc1 (configuration not stated),7,3%,-62,-0.8,3,
COc1ccc(C)cc1NC(=O)CCCN1C(=O)CCC1=O,3,1%,-22,-1.1,-6,
CC1CN(S(=O)(=O)c2csc(C(=O)Nc3ccccc3)c2)CC(C)O1 (configuration not stated),-6,.,.,1.7,.,
O=C(c1ccc(-n2cccn2)cc1)N1CCc2ccccc2C1,-8,0%,.,-1.6,.,
Cc1ccc(S(=O)(=O)NC(C)(C)CSc2ccccn2)cc1,8,1%,-47,3.5,0,
Cc1ccn(C(C)CC(=O)Nc2ccc(-c3ccno3)cc2)n1 (configuration not stated),-7,.,.,2.0,.,
Cc1cc(C)cc(N(C(=O)c2csnn2)C(C(=O)NC(C)(C)C)c2ccncc2)c1 (configuration not stated),-2,5%,.,-4.4,12,
COc1ccccc1S(=O)(=O)Cc1ccc(C(=O)NCCN2CCCCCC2)o1,3,-4%,-34,-2.6,3,Arbovirus anti repeat=-1
O=C(O)c1ccc(/C=N/Nc2nc3ccccc3[nH]2)cc1,10,13%,.,-1.8,.,
CCCS(=O)(=O)c1ccc(COC(=O)Cc2ccc([N+](=O)[O-])cc2)cc1,0,.,.,-0.2,.,
CCN1CCN(Cc2ccc(NC(=O)Nc3ccccc3OC)cc2)CC1,3,-7%,-24,-0.7,-11,Arbovirus anti repeat=-5
O=C(CNc1ccc2ccccc2c1)N/N=C/c1cc2ccccc2nc1Cl,7,4%,-14,15,3,
C/C(CC(=O)Nc1ccc(Cl)c(C(F)(F)F)c1)=N\NC(=O)c1cc2ccccc2cc1O,13,11%,-16,-32,-43,
COc1ccc(/C(C)=N/N=C2/NC(=O)CC(C(=O)O)S2)cc1F (configuration not stated),-7,-7%,.,-0.2,.,
Cc1ccccc1NC(=S)N1CCCC1,9,-4%,-28,-1.6,5,
O=C(NC1=NCCS1)c1nc(-c2ccccc2)n(-c2ccccc2)n1,43,6%,5,-3.0,2,
